Source: PubChem BioAssay
ClpP mod: qHTS Assay for Activators of ClpP | AID 651965, 2013 | purified B. subtilis ClpP, FRET peptide cleavage, 20 min | Potency, µM (titrated, usually from 57.5 µM), for the others: top-dose activity change, negative = active | 1.9% of 340,000 active; active = well fitted falling curve with a large enough effect; inconclusive = small, poorly fitted or top-dose-only effect; inactive = no such curve, though single readings can be large or run the other way; further: potency means the concentration at half of the fitted maximal effect; the source files actives as falling curves though it sought activators and does not explain the sign; nearly all actives have a fitted effect of over 65% in size; many hits overshoot -100%
Target sequence (P80244 whole entry, looked up): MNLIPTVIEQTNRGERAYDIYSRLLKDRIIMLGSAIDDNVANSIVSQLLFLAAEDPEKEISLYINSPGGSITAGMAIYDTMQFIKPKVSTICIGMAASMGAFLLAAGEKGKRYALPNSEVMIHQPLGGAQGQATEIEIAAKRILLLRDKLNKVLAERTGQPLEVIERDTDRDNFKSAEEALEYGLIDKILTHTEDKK
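ClpP 10 microg/mL final, pH 8 Tris/KCl buffer with BSA, glycerol, Tween-20; compound pinned in; FRET-FV substrate; RT 20 min; Ex320/Em430; ΔFRET vs ADEP 5.8 microM, DMSO, no enzyme.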
gsp agonist: agonists of gsp mutant (McCune-Albright syndrome); AID 624287; gsp mutant cells, cAMP HTRF, 30 min; control for the full effect not named in the record; 0.13% of 340,000 active; Potency, µM (top dose mostly 76.9 µM), for inactives: at the top dose activation (cAMP increase), most hits filed as activators; active = well fitted activation curve with a large enough effect; inconclusive = small, poorly fitted or top-dose-only effect, or another doubt; inactive = no such curve, though single readings can be large or run the other way; cell line not stated here;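 further: phosphodiesterase inhibitor Ro 20-1724 added with compounds to block cAMP breakdown; potency means the concentration at half of the fitted maximal effect; nearly all actives have a fitted effect of over 60% in size; about a fifth of the inactives were tested at one dose only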
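Cells in DMEM/10% FBS with G418 were pretreated with compounds in DMSO plus […] (300 uM stock) for 30 min at 37C. cAMP was measured by HTRF (cAMP-d2 plus anti-cAMP antibody-K) after 30 min at room temperature.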
gsp antag: antagonists of gsp mutant (McCune-Albright syndrome) | gsp-mutant cells, cAMP HTRF, 30 min; control for the full effect not named in the record | AID 624288 | 0.4% of 340,000 active | Potency, µM (series often up to 76.9 µM), for the others: top-dose activity change, negative = inhibition, actives largely listed as inhibitors; active = falling curve of any shape with a large fitted effect; inconclusive = falling curve, mostly with a smaller effect; inactive = flat or rising curve; cell line not stated here;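 further: intracellular cAMP measured with PDE inhibitor Ro 20-1724 present during compound exposure; potency means the concentration at half of the fitted maximal effect; on the % scale 0 is the no-effect control and ±100 the full control effect; nearly all actives have a fitted effect of over 65% in size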
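Cells, 2000/well, grown 16–24 h in DMEM 10% FBS with 0.5 mg/ml G418, then compounds plus […] (300 uM addition stock), 30 min at 37C. cAMP read by HTRF (cAMP-d2 and anti-cAMP antibody-K in lysis buffer) after 30 min RT.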
TRPML1 blocker: inhibitors of human TRPML1 channel; TRPML1-inducible cells, Ca2+ dye fluorescence, FDSS; active compounds read low; inhibition of EC80 agonist-evoked calcium signal; activity change, negative = inhibition, % (test concentration not listed); 0.02% of 390,000 active; in the data active means activity change below about -50%; inconclusive means about -30% to -50%; inactive means above about -30%;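 further: stimulus is agonist 54-4 at its EC80 concentration; on the % scale 0 is the no-effect control and ±100 the full control effect; compound concentration not given in the record; the text of the record puts the active cut at -80%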
Target sequence (Q9GZU1 whole entry, looked up): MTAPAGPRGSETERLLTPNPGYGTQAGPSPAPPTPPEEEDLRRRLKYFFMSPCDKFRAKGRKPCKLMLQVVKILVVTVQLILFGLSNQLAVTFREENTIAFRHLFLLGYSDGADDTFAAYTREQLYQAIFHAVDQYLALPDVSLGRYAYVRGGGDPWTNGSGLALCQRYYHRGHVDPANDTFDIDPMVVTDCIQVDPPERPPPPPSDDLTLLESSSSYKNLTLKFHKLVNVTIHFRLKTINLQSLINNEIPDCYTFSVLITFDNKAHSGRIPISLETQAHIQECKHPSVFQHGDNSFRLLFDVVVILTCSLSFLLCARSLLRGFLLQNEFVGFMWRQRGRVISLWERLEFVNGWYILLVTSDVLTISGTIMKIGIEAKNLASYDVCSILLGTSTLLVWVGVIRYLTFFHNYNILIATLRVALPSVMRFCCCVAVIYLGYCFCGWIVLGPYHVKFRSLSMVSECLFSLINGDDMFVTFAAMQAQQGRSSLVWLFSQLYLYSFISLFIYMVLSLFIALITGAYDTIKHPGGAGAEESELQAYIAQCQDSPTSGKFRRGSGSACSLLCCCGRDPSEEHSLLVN
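TRPML1-DL cells, Tet-induced overnight (~16 h, 37 °C) at 1,500 cells/well, were loaded with Ca8 no-wash dye plus quencher for 45-90 min at room temperature. Compounds were pinned during FDSS kinetic reading; agonist 54-4 at EC80 (4 uM final) then added.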
TRPML1 agonist: activates the human TRPML1 channel; AID 624414; TRPML1-expressing cells, Ca2+ dye fluorescence, FDSS; host cell line not named in the record; reference of the full effect not given here; activation, % (test concentration not listed); 0.12% of 410,000 active; in the data active = activation above about 50%; inconclusive = about 30% to 50%; inactive = below about 30%; further: 0% is about no effect; the text of the record puts the active cut at 80%
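Tet-induced TRPML1-DL cells, 1,500 per well, cultured overnight, were loaded with a no-wash Ca2+ dye for 45–90 min. Calcium fluorescence was recorded on the FDSS for 110 s after compound addition, before the EC80 agonist (4 uM 54-4) was added.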
Menin MLL FP FL: inhibitors of human menin-MLL interaction, wild-type MLL peptide. Fluorescence polarization, fluorescein-MLL peptide displacement from menin. FP activity change, % at 61.4 µM. 290,000 tested, under 10 active; inconclusive = falling polarisation curve, or a change in total fluorescence; inactive = total fluorescence flat and polarisation flat or rising; no compound was filed as active; the % refers to the polarisation; negative = inhibition;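 further: % of control where 0% means no effect; inhibitors lower the polarisation; unlabelled MLL peptide was the positive control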
Active calls of the source: *; ? = inconclusive; · = no result given; & = joins results of further samples; [ ] = remark or other dose.

SMILES	ClpP mod	gsp agonist	gsp antag	TRPML1 blocker	TRPML1 agonist	Menin MLL FP FL
Clc1ccccc1C1NCc2ccccc2-n2cccc21 (configuration not stated)	2.8%	-9%	-5%	50	0.8	-2.2
Cc1ccnc(-n2c(C)cc(C=C3C(=O)N(C)C(=S)N(C)C3=O)c2C)c1	-8.6%	-1%	1%	17	-0.3	?
CCOC(=O)c1ccc(N2C(=O)c3n[nH]c(-c4cccs4)c3C2c2ccc(OC)cc2OC)cc1 (configuration not stated)	?	·	·	-4	0.5	·
CC(=O)Nc1cccc2c1Cc1ccccc1-2	0.8%	-47%[inhibitor]	-4%	7	-0.7	3.8
CCc1ccccc1NC(=O)CNC1CCCCC1	·	?	3%	?	-0.3	-3.7
CC12CN3CC(C)(CN(C1)C3c1cccs1)C2 (configuration not stated)	1.2%	-7%	5%	-11	-0.3	3.1
CCCCn1c(O)c(C(C)=NCCc2c[nH]c3ccccc23)c(=O)[nH]c1=O	0.3%	-2%	-22%	-12	1.2	-0.8
CCCN1CC[C@@H]2c3cc(O)ccc3CC[C@@H]21	2.0%	·	2%	1	-0.8	9.3&-3.6
CC(C)CCC1(CCc2ccncc2)C(=O)NC(=O)NC1=O	3.6%	-33%[inhibitor]	14%	-6	-0.8	4.4
CN1CCN(c2c(N)c(=O)oc3ccccc23)CC1	-23%	-60%[inhibitor]	7%	11	0.7	1.0
O=C(c1ccc2nc3ccc(Cl)cc3c(=O)n2c1)N1CCC2(CC1)OCCO2	14µM*	?	6%	2	-0.7	·
Fc1ccc2c(c1)nnn2C1CCN(Cc2ccccc2)CC1	-0.4%	-4%	10%	-8	-0.3	0.8
Cc1c(-c2cccc(Cl)c2)nc2ccccc2c1C(=O)N1CCC2(CC1)OCCO2	1.7%	-2%[15.4 µM]	-18%	-7	0.8	-4.6
Cc1ccc(S(=O)(=O)N2CCC(C(=O)N3CCC4(CC3)OCCO4)CC2)cc1	-1.0%	4%	-3%	-1	-0.3	1.3
O=C1NC(=O)N(c2ccccc2F)C(=O)/C1=C/c1cn(CC(=O)N2CCOCC2)c2ccccc12	·	-7%[15.4 µM]	-13%	-14	-0.3	12
CN(C)c1ccc([N+](=O)[O-])c([N+](=O)[O-])c1	·	-21%	-11%	42	0.7	·
COc1ccc(NC(=O)CN2C3CCC2CC(O)(c2cccnc2)C3)cc1OC (configuration not stated)	0.0%	-38%[inhibitor]	-1%	33	-0.5	-0.4
CN[C@H](C)[C@H](O)c1ccccc1	1.2%	·	1%	4	-0.3	-3.0
CCN(CC)CCCN=Cc1c(O)n(CCc2ccc(OC)c(OC)c2)c(=O)[nH]c1=O	-0.5%	-32%[inhibitor]	6%	-9	0.4	4.2
CN1C(=O)CN=C(c2ccc(Cl)cc2)c2cc(Cl)ccc21	0.4%	·	-7%	-6	0.5	-4.3
COc1ccc(CN(C)S(=O)(=O)c2nnc(NC(=O)c3ccccc3Br)s2)cc1	·	?	-22%	4	0.1	-0.9
Nc1ccc(CCN2CCN(c3cccc(C(F)(F)F)c3)CC2)cc1	-0.9%	·	0%	-4	-0.4	0.2
O=C(Cn1cc(C(=O)c2ccccc2)c2ccccc21)Nc1ccc(Br)cc1	-20%	·	·	-1	-0.4	·
COc1ccc(CN2C(=O)NC(=O)/C(=C\c3cccc(OC)c3OC)C2=O)cc1	·	25%[15.4 µM]	-11%	4	0.1	13
CCOC(=O)c1cc(CC)sc1/N=C/C1C(=O)NC(=S)NC1=O	·	9%	-7%	0	-0.5	?
O=S1(=O)CC2(N3CCOCC3)CCCCCCC21 (configuration not stated)	-0.2%	-11%	11%	9	0.7	1.5
Cc1ccccc1-n1c(O)c(/C=N/NC(=O)c2ccccc2O)c(=O)[nH]c1=S	-9.4%	-25%	-18%	·	·	14
N=C1c2ccccc2CN1CC(=O)c1ccccc1	·	3%	14%	56	-0.5	10
Cn1nnc(CC[N+](C)(C)C)n1	·	-10%[15.4 µM]	16%	-10	0.1	-8.6
Cc1ccc(-c2cc(-c3ccc(C)cc3)[n+](-c3ccc(C(=O)[O-])cc3)c(-c3ccc(C)cc3)c2)cc1	4.0%	·	6%	13	-0.4	·
Cc1ncc2n1-c1ccc(Cl)cc1C(c1ccccc1F)=NC2	-2.1%	·	-9%	-6	-0.9	4.1
CC(C)n1c(/C=C/[C@@H](O)C[C@@H](O)CC(=O)O)c(-c2ccc(F)cc2)c2ccccc21	?	·	1%	5	-1.1	-0.8
CC(C)(C)c1ccccc1O	-0.3%	·	-1%	-9	0.5	·
CCC(=NCCCn1ccnc1)c1c(O)n(Cc2ccccc2)c(=O)[nH]c1=O	0.6%	35%	-4%	97	-0.7	5.1
CCCCCCC(N)CC(=O)O (configuration not stated)	-1.8%	6%	11%	36	0.2	4.3
CN1CCN(C(=O)COc2ccc(-c3nc4ccccc4s3)cc2)CC1	25µM*	1%	4%	4	0.4	1.9
NS(=O)(=O)c1ccc(N=Nc2c(O)[nH]c(=S)[nH]c2=O)cc1	0.8%	13%	-3%	34	-0.3	2.7
CNCCc1ccc(O)c(O)c1	2.9%	·	?	-11	-0.2	2.5
CCC(C)N1CCN(C(=O)COc2ccc3ccccc3c2)CC1 (configuration not stated)	·	-3%[15.4 µM]	12%	-2	-0.5	3.4
CCSc1nnc(NC(=O)c2cccn(Cc3ccccc3Cl)c2=O)s1	0.3%	·	·	-1	1.4	·
C[C@]12CCC3C(CC[C@H]4C[C@H](O)CC[C@]34C)C1C[C@@H](O)[C@@H]2O (some centres not stated)	·	8%	14%	46	1.8	·
CCN1CCN(Cc2ccc(C)cc2C)CC1	1.0%	-15%	8%	-4	-0.6	3.6
CN1CSC(=S)N(C)C1	-5.0%	-30%[inhibitor]	2%	6	-0.5	0.8
CC1=CC(=Cc2sc3ccccc3[n+]2C)C=C(C)O1	0.7%	?	45µM*	9	0.2	25
O=C(Cc1ccccc1)N1CCN(C2CCCCCC2)CC1	·	2%	10%	22	0.9	0.0
COC(=O)C1=C(c2ccc(OCc3ccccc3)cc2)C[C@@H]2CC[C@H]1N2C(=O)NCc1ccc2c(c1)OCO2	-6.9%	10%	·	8	0.7	·
O=c1c(/C=N/N2CCOCC2)c(O)n(-c2ccccc2)c(=S)n1-c1ccccc1	·	19%[15.4 µM]	5%	-11	1.8	1.0
CC12CN3C(O)C(C)(C1)CC(C)(C2)C3O (configuration not stated)	-1.7%	-57%[inhibitor]	7%	-7	0.4	0.3
O=C(O)Cn1cc(C(=O)c2ccccc2)c2ccccc21	0.7%	24%	2%	0	-0.5	2.3
O=c1c2ccccc2[nH]c(=S)n1-c1cccnc1	-0.8%	18%	2%	15	-0.1	6.8
Cc1c(C(=O)c2ccccc2)c2ccccc2n1C	1.5%	26%	-9%	-1	0.4	1.9
O=C1OCc2cc(N=Nc3c(O)[nH]c(=O)[nH]c3=O)ccc21	1.2%	?	13%	-16	3.7	0.0
CCOC(=O)C1=C(N)OC2=C(C(=O)CCC2)C12C(=O)Nc1ccccc12 (configuration not stated)	-1.5%	4%	2%	4	0.1	-0.1
CCOc1cc(/C=C2/C(=O)NC(=O)N(c3ccc(CC)cc3)C2=O)ccc1OC(=O)c1cccs1	1.4%	-58%[inhibitor]	-1%	2	2.4	4.2
CN1CCN(CCOC2c3ccccc3CSc3ccc(Cl)cc32)CC1 (configuration not stated)	0.0%	3%[15.4 µM]	3%	-5	-0.4	0.1
CCN(CC)c1ccc(N=Cc2c(O)n(-c3ccccc3)c(=O)[nH]c2=O)cc1	0.3%	1%	-15%	3	4.8	?
CN(C)C(=O)OCc1n(C)cc[n+]1C	-1.2%	13%	5%	-18	0.6	-0.9
CCOP(=O)(C#CC(C)(C)C)C1(O)CCCCC1 (configuration not stated)	1.2%	-17%	1%	1	-0.5	1.9
Cc1cc(/C=C2\C(=O)NC(=O)N(c3ccccc3F)C2=O)c(C)n1-c1cc(C(=O)O)cc(C(=O)O)c1	-4.6%	-21%	6%	-2	-0.1	7.9
Cc1ccc(C)c(NP(=O)(Oc2ccccc2)Oc2ccccc2)c1	-1.3%	-4%	-5%	-3	5.1	1.9
Remaining list, next part.
SMILES	ClpP mod	gsp agonist	gsp antag	TRPML1 blocker	TRPML1 agonist	Menin MLL FP FL
NC(Cc1ccccc1Cl)c1nn[nH]n1 (configuration not stated)	1.3%	-24%	·	1	-0.7	·
COc1ccc(N=C(C)c2c(O)n(C)c(=O)n(C)c2=O)c(OC)c1	0.2%	?	3%	-5	-0.7	-4.1
Cc1nn(-c2ccccc2)c(Cl)c1/C=N\NC(=O)c1cnccn1	-1.2%	?	9%	-8	-0.4	0.6
COc1ccccc1N1CCN(Cc2ccc(SC)cc2)CC1	-1.9%	8%	-4%	·	·	-0.3
COCCNCCOc1ccc(C(C)(C)c2ccccc2)cc1	0.2%	16%[15.4 µM]	13%	-14	1.2	1.9
CCCCC(=O)N/N=C/c1c(O)n(C2CC2)c(=S)[nH]c1=O	1.3%	-96%	-1%	6	0.0	·
C[C@]12CCC3C(CC[C@H]4C[C@H](O)CC[C@]34C)C1[C@@H](O)[C@@H](O)[C@@H]2O (some centres not stated)	-0.8%	5%[15.4 µM]	13%	43	-0.2	·
CC(=NCCN1CCOCC1)c1c(O)n(Cc2ccccc2)c(=O)[nH]c1=O	-2.6%	1%	1%	-1	0.6	?
CCN1c2nc3ccccn3c(=O)c2CC2(C(=O)N(C)C(=O)N(C)C2=O)C1C (configuration not stated)	-24%	7%	9%	17	-0.1	1.2
CCOC(=O)c1cnc(N2CC2)nc1N	·	17%	3%	-4	0.5	·
O=c1[nH]c(=S)n(C2CC2)c(O)c1C=NCC1CCCO1 (configuration not stated)	-0.8%	-20%[15.4 µM]	-2%	4	-0.3	0.4
COc1ccc(OCC#CCN2CCCCCC2)cc1	·	-39%[inhibitor]	2%	-7	-0.8	4.1
COc1ccc(N=C(C)c2c(O)n(C3CCCCC3)c(=O)[nH]c2=O)c(OC)c1	0.5%	6%	-6%	1	0.6	7.7
O=C(/C=C/c1ccccc1)NC(=S)N1C[C@H]2C[C@H](C1)c1cccc(=O)n1C2	0.2%	·	1%	·	·	36[activator]

This is a subset (hit frequency here may not be typical).
